# rRNA inh HTS: reduced GFP signal of wild-type E. coli, primary screen, bacterial rRNA inhibitor project, GFP/RFP fluorescence, OD600, single point | E. coli WT GFP vs humanized-ribosome RFP mutants, 24 h; active compounds read low; DMSO median 0, no signal -100 | GFP signal change (wild-type ribosome), % (no concentration beside the values) | 350,000 compounds, 1.6% hits;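 active = significant combined selectivity score with lowered wild-type GFP, culture density cut under 30%, mutant RFP and density less affected; inactive = any of these conditions unmet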; note: one replicate is shown; some compounds called inactive have numbers as strong as hits
# FGF22 binding: binders of human FGF22 protein, primary screen, FGF22 synaptogenesis inhibitor project, biophysical, thermal shift, single point; Fibroblast growth factor 22 (Homo sapiens), Q9HCT0; recombinant FGF22 thermal shift, SYPRO orange fluorescence; percent of sucrose octasulfate shift, DMSO zero; calls only at 9.99 µM; 340,000 compounds, 1.5% hits; AID 651658, 2012;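 active = melting point raised past a set limit in the mean and every replicate; three in four hits are not shown here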
# Target sequence (Q9HCT0 whole entry, looked up): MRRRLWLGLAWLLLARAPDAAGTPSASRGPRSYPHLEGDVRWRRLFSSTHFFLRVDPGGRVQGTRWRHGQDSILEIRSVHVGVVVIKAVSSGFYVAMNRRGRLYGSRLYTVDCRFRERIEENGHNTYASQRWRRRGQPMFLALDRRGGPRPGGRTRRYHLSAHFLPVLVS
# rRNA inh HTS OD600: second read-out of rRNA inh HTS, no call of its own (marks repeat the call); OD600 change, %; measured here: OD600 growth;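 optical density of the mix in the first replicate; 0 = DMSO median and -100 = no signal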
# rRNA inh HTS RFP: second read-out of rRNA inh HTS, no call of its own (marks repeat the call); RFP signal change, %; measured here: RFP humanized mutant strains;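 first replicate; 0 = DMSO median and -100 = no signal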
# * = called active by the depositor; i = inactive. Not all compounds are listed, so the mix of outcomes need not match the whole.
SMILES	rRNA inh HTS	rRNA inh HTS OD600	rRNA inh HTS RFP	FGF22 binding
C[C@@H]1CN([C@@H](C)CO)C(=O)c2cc(-c3cncnc3)cnc2O[C@@H]1CN(C)Cc1cncnc1	1	6	-1.5	i
COc1ccccc1-c1ccccc1[C@@H]1[C@@H](CO)N(C(=O)C2CCC2)[C@H]1C#N	2	1	-2.0	i
COc1ccc(-c2ccc3c(c2)O[C@@H](CN(C)Cc2cccnc2)[C@H](C)CN([C@@H](C)CO)S3(=O)=O)cc1	-10	-6	2.4	i
C[C@H](O)C#Cc1cnc2c(c1)C(=O)N([C@@H](C)CO)C[C@@H](C)[C@H](CN(C)Cc1ccccn1)O2	2	-1	-1.3	i
O=C(C[C@@H]1CC[C@H](NC(=O)c2ccncc2)[C@H](CO)O1)Nc1ccccc1	1	4	1.8	i
C/C=C/c1ccc2c(c1)O[C@H](CN(C)Cc1ccccc1F)[C@H](C)CN([C@@H](C)CO)S2(=O)=O	-34	-60	9.4	i
C[C@H]1CN([C@@H](C)CO)S(=O)(=O)c2ccc(C#CC3CC3)cc2O[C@@H]1CN(C)C(=O)Cc1ccncc1	1	11	-1.5	i
CC(C)C[C@H]1COc2cccc(N3CCCCC3)c2S(=O)(=O)N1	-29	-40	1.5	i

# The list continues.
SMILES	rRNA inh HTS	rRNA inh HTS OD600	rRNA inh HTS RFP	FGF22 binding
Cc1noc(C)c1S(=O)(=O)Nc1ccc2c(c1)C(=O)N([C@@H](C)CO)C[C@H](C)[C@H](CN(C)C(=O)c1ccncc1)OCCCC[C@@H](C)O2	4	3	-1.9	i
Cc1ccc(S(=O)(=O)Nc2ccc3c(c2)CC(=O)N([C@@H](C)CO)C[C@H](C)[C@H](CN(C)CC2CCCCC2)O3)cc1	-11	-60	31	i
COc1ccc(S(=O)(=O)N(C)C[C@H]2Oc3c(NC(=O)c4cc(C)nn4C)cccc3C(=O)N([C@@H](C)CO)C[C@H]2C)cc1	-13	-17	0.5	i
CCCNC(=O)N(C)C[C@H]1Oc2ncc(C#CCC(C)C)cc2C(=O)N([C@H](C)CO)C[C@@H]1C	3	0	-1.8	i
C[C@H]1CN(c2ccc(N3CCNC[C@@H]3C)cc2C#N)CCN1Cc1ccccc1	9	6	2.1	i
C[C@@H]1CCCCO[C@@H](CN(C)S(=O)(=O)c2ccc(Cl)cc2)[C@@H](C)CN([C@H](C)CO)C(=O)c2cc(NC(=O)CCCCCC(=O)Nc3ccccc3N)ccc2O1	2	1	-0.9	i
C[C@H]1CN([C@@H](C)CO)S(=O)(=O)c2ccc(C#CC3CC3)cc2O[C@H]1CN(C)Cc1ccc(F)cc1	-11	-36	6.1	i
Cn1cnc(S(=O)(=O)N2CCCCN3[C@H](CO)[C@H](c4ccc(C#CC5CCCC5)cc4)[C@H]3C2)c1	3	-28	1.5	i

# Next part:
SMILES	rRNA inh HTS	rRNA inh HTS OD600	rRNA inh HTS RFP	FGF22 binding
CO[C@H]1CN(C)C(=O)c2cc(NC(=O)C3CCOCC3)ccc2OC[C@@H](C)N(Cc2cccnc2)C[C@H]1C	4	5	-3.1	i
N#C[C@H]1[C@H](c2ccc(C#CC3CCCC3)cc2)[C@@H](CO)N1C(=O)Nc1ccc(F)cc1	-10	-26	14	i
Cc1noc(C)c1NC(=O)Nc1cccc2c1O[C@@H](CN(C)C(=O)Nc1cccc3ccccc13)[C@@H](C)CN([C@H](C)CO)C2=O	-7	-12	3.2	i
C[C@@H]1CN([C@H](C)CO)C(=O)c2cc(NS(=O)(=O)c3ccc(Cl)cc3)ccc2O[C@@H](C)CCCCO[C@H]1CN(C)S(=O)(=O)c1cccs1	0	2	0.5	i
CO[C@H]1CN(C)C(=O)c2cc(NC(=O)c3nc4ccccc4s3)ccc2OC[C@@H](C)N(Cc2cccnc2)C[C@H]1C	-7	-19	16	i
CCCC#Cc1ccc([C@H]2[C@@H](CO)N3CCCCN(Cc4ccncc4)C[C@H]23)cc1	3	13	6.8	i
N#C[C@H]1[C@H](c2ccc(C#CC3CCCCC3)cc2)[C@@H](CO)N1C(=O)c1cccc(F)c1	5	17	5.8	i
CN1[C@@H]2c3ccc(-c4ccccc4)c(=O)n3C[C@@H]2[C@@H](CO)[C@@H]1C(=O)NC1Cc2ccccc2C1	-11	-12	-0.2	i

# Next entries
SMILES	rRNA inh HTS	rRNA inh HTS OD600	rRNA inh HTS RFP	FGF22 binding
COc1cccc(-c2ccc([C@@H]3[C@@H](CO)N(C(=O)c4ccccn4)[C@H]3C#N)cc2)c1	-10	-31	11	i
COc1ccccc1CN1C[C@H](C)[C@H](OC)CN(C)C(=O)c2cc(NC(C)=O)ccc2OC[C@H]1C	3	13	-1.4	i
CN(C)C(=O)C[C@H]1C=C[C@H](NS(=O)(=O)c2ccccc2)[C@H](CO)O1	2	6	-1.0	i
CCOC(=O)N(C)C[C@H]1OCc2ccccc2-c2c(n(C)c3ccccc23)C(=O)N([C@@H](C)CO)C[C@H]1C	0	-2	0.5	i
C[C@H](CO)N1C[C@H](C)[C@H](CN(C)Cc2ccncc2)Oc2ccc(NC(=O)Nc3ccc4c(c3)OCO4)cc2CC1=O	-1	-9	3.2	i
COc1ccc(S(=O)(=O)N[C@@H]2C=C[C@H](CC(=O)N3CCc4ccccc4C3)O[C@@H]2CO)cc1	-5	-2	0.8	i
CNC[C@H]1OCCCC[C@H](C)Oc2ccc(NS(C)(=O)=O)cc2C(=O)N([C@H](C)CO)C[C@H]1C	2	4	-3.5	i
C[C@H](CO)N1C[C@H](C)[C@@H](CN(C)Cc2ccc(C(F)(F)F)cc2)Oc2ccc(NC(=O)Nc3ccc(C(F)(F)F)cc3)cc2CC1=O	3	6	-4.6	i

# Continuation:
SMILES	rRNA inh HTS	rRNA inh HTS OD600	rRNA inh HTS RFP	FGF22 binding
COc1ccc(S(=O)(=O)Nc2ccc3c(c2)C(=O)N([C@@H](C)CO)C[C@@H](C)[C@@H](CN(C)S(=O)(=O)c2cn(C)cn2)OCCCC[C@@H](C)O3)cc1	-5	-5	1.9	i
Cc1ccc(S(=O)(=O)N(C)C[C@H]2Oc3c(cccc3N(C)C)C(=O)N([C@@H](C)CO)C[C@H]2C)cc1	-5	0	0.2	i
COc1ccc(NC(=O)Nc2ccc3c(c2)C(=O)N([C@@H](C)CO)C[C@@H](C)[C@H](CN(C)C(=O)Cc2ccccc2)OCCCC[C@@H](C)O3)cc1	-3	-3	1.5	i
CCNC[C@H]1[C@@H](c2ccccc2)[C@@H](CO)N1C(=O)Cc1ccccn1	0	5	0.0	i
CN1CCN(C(=O)C[C@@H]2CC[C@@H]3[C@H](COC[C@@H](O)CN3Cc3ccc4c(c3)OCO4)O2)CC1	3	9	2.4	i
CCCC(=O)Nc1ccc2c(c1)C(=O)N(C)[C@@H]1CC[C@@H](CC(=O)OC)O[C@H]1CO2	-2	2	-0.4	i
CC(=O)N1CC[C@@H]2[C@@H](CO)Nc3ccc(-c4ccccc4)cc3[C@@H]21	4	5	0.3	i
CCC(=O)N(CC)C[C@@H]1[C@@H](c2ccccc2)[C@H](CO)N1C(=O)C1CCC1	2	9	-0.1	i

# Carrying on.
SMILES	rRNA inh HTS	rRNA inh HTS OD600	rRNA inh HTS RFP	FGF22 binding
CO[C@H]1CN(C)C(=O)c2cc(NC(C)=O)ccc2OC[C@H](C)N(CC2CC2)C[C@@H]1C	1	6	-1.8	i
C[C@@H]1CN([C@@H](C)CO)C(=O)c2cc(NC(=O)c3ccncc3)ccc2O[C@@H](C)CCCCO[C@H]1CN(C)S(=O)(=O)c1ccc(F)cc1	-9	-8	2.5	i
CO[C@@H]1CN(C)C(=O)c2ccc(NC(=O)NC(C)C)cc2OC[C@H](C)N(C)C[C@H]1C	1	4	-3.6	i
COc1cccc(-c2ccc([C@@H]3[C@@H](CO)N4CCCCN(CC5CC5)C[C@H]34)cc2)c1	-3	1	-0.4	i
C[C@H](O)C#Cc1ccc2c(c1)O[C@@H](CN(C)Cc1cncnc1)[C@H](C)CN([C@@H](C)CO)S2(=O)=O	1	0	0.3	i
C[C@@H]1CN([C@H](C)CO)C(=O)Cc2cc(NC(=O)Cc3cn(C)c4ccccc34)ccc2O[C@@H]1CN(C)C(=O)Nc1cccc2ccccc12	2	-1	0.9	i
C[C@@H]1CN([C@@H](C)CO)C(=O)Cc2cc(NC(=O)Nc3ccc(C(F)(F)F)cc3)ccc2O[C@H]1CN(C)C(=O)NC1CCCCC1	-2	1	3.7	i
C[C@H]1CN([C@@H](C)CO)C(=O)c2cc(NS(=O)(=O)c3ccccc3)ccc2O[C@@H]1CN(C)Cc1ccc(C(F)(F)F)cc1	-4	10	-2.1	i

# (next part)
SMILES	rRNA inh HTS	rRNA inh HTS OD600	rRNA inh HTS RFP	FGF22 binding
C[C@H](CO)N1C[C@H](C)[C@@H](CN(C)Cc2ccc(Cl)c(Cl)c2)Oc2ccc(NC(=O)NC3CCCCC3)cc2C1=O	-1	-7	0.1	i
CNC[C@H]1Oc2ncc(C#CC3CCCC3)cc2C(=O)N([C@H](C)CO)C[C@H]1C	6	-1	0.6	i
Cc1noc(C)c1NC(=O)Nc1ccc2c(c1)C(=O)N([C@@H](C)CO)C[C@@H](C)[C@@H](CN(C)C)OCCCC[C@H](C)O2	2	5	-2.8	i
C[C@H](CO)N1C[C@H](C)[C@H](CN(C)C(=O)Cc2ccncc2)Oc2ncc(C3=CCCCC3)cc2C1=O	1	9	-0.2	i
CCC(=O)N1[C@H](CO)[C@H](c2ccccc2)[C@H]1CN(C)C(=O)c1ccccc1F	0	14	-1.2	i
CC(C)NC(=O)Nc1ccc2c(c1)C(=O)N([C@@H](C)CO)C[C@@H](C)[C@H](CN(C)Cc1ccc(Cl)c(Cl)c1)OCCCC[C@@H](C)O2	1	-2	0.7	i
CC(C)NC(=O)N1[C@H](CO)[C@@H](c2ccc(C#CC3CCCC3)cc2)[C@@H]1C#N	0	-3	-0.7	i
COc1ccc(-c2ccc([C@@H]3[C@@H](C#N)N(C(=O)C4CCCC4)[C@H]3CO)cc2)cc1	3	1	0.3	i

# Among those listed so far, these contain a Cl atom.
SMILES	rRNA inh HTS	rRNA inh HTS OD600	rRNA inh HTS RFP	FGF22 binding
C[C@@H]1CCCCO[C@@H](CN(C)S(=O)(=O)c2ccc(Cl)cc2)[C@@H](C)CN([C@H](C)CO)C(=O)c2cc(NC(=O)CCCCCC(=O)Nc3ccccc3N)ccc2O1	2	1	-0.9	i
C[C@@H]1CN([C@H](C)CO)C(=O)c2cc(NS(=O)(=O)c3ccc(Cl)cc3)ccc2O[C@@H](C)CCCCO[C@H]1CN(C)S(=O)(=O)c1cccs1	0	2	0.5	i
C[C@H](CO)N1C[C@H](C)[C@@H](CN(C)Cc2ccc(Cl)c(Cl)c2)Oc2ccc(NC(=O)NC3CCCCC3)cc2C1=O	-1	-7	0.1	i
CC(C)NC(=O)Nc1ccc2c(c1)C(=O)N([C@@H](C)CO)C[C@@H](C)[C@H](CN(C)Cc1ccc(Cl)c(Cl)c1)OCCCC[C@@H](C)O2	1	-2	0.7	i

# Further entries follow.
SMILES	rRNA inh HTS	rRNA inh HTS OD600	rRNA inh HTS RFP	FGF22 binding
O=C(C[C@@H]1CC[C@H](NS(=O)(=O)c2ccc(F)cc2)[C@H](CO)O1)NC1CCC1	0	-3	-1.0	i
COc1ccccc1NC(=O)N1C[C@@H](C)[C@H](OC)CN(C)C(=O)c2cc(NC(=O)c3cc(C)on3)ccc2OC[C@H]1C	0	-2	-0.1	i
C[C@@H]1CN([C@@H](C)CO)C(=O)Cc2cc(NC(=O)Nc3ccc(F)cc3)ccc2O[C@@H]1CN(C)C(=O)Nc1ccc2c(c1)OCO2	-3	-7	-0.1	i
C[C@H](O)C#Cc1ccc2c(c1)O[C@@H](CN(C)C(=O)Nc1ccccc1)[C@@H](C)CN([C@@H](C)CO)S2(=O)=O	-2	0	-4.3	i
C[C@@H]1CCCCO[C@H](CN(C)S(=O)(=O)c2ccccc2)[C@@H](C)CN([C@@H](C)CO)C(=O)c2cc(NS(=O)(=O)c3ccccc3)ccc2O1	1	2	0.7	i
O=C(C[C@@H]1CC[C@H]2[C@@H](COC[C@@H](O)CN2C(=O)c2cccnc2)O1)NCc1ccc(Cl)cc1	3	2	6.9	i
O=C(C[C@@H]1CC[C@@H]2[C@H](COC[C@H](O)CN2Cc2cccc(-c3ccncc3)c2)O1)N1CCN(c2ccccc2)CC1	-4	-13	4.4	i
CCC(=O)Nc1ccc2c(c1)OC[C@@H](C)N(Cc1cncnc1)C[C@@H](C)[C@@H](OC)CN(C)C2=O	1	3	-1.5	i

# Next records follow.
SMILES	rRNA inh HTS	rRNA inh HTS OD600	rRNA inh HTS RFP	FGF22 binding
CO[C@@H]1CN(C)C(=O)c2cc(NC(C)=O)ccc2OC[C@@H](C)NC[C@@H]1C	2	1	0.8	i
CO[C@@H]1CN(C)C(=O)c2ccc(NC(=O)C3CCCC3)cc2OC[C@@H](C)N(Cc2nccs2)C[C@H]1C	-5	-5	1.0	i
CN(C[C@H]1N[C@@H](CO)[C@@H]1c1ccc(C2=CCCC2)cc1)C(=O)c1ccc(F)cc1	3	-21	7.5	i
C[C@@H]1CCCCO[C@H](CN(C)S(=O)(=O)c2cn(C)cn2)[C@@H](C)CN([C@H](C)CO)C(=O)c2cc(NS(=O)(=O)c3ccc(F)cc3)ccc2O1	1	5	-0.2	i
CN(C)C(=O)c1ccc(-c2ccc([C@H]3[C@H](C#N)N(C(=O)C4CCC4)[C@H]3CO)cc2)cc1	1	0	-0.5	i
CCNC(=O)C[C@H]1CC[C@H]2[C@@H](COC[C@@H](O)CN2C(=O)c2cccnc2)O1	4	6	3.7	i

# Screening results as filed in PubChem BioAssay.
